# Vaccinia stage – blocks a specific stage of Vaccinia orthopoxvirus infection | Vaccinia-infected cells, mCherry/Venus stage reporter fluorescence; active compounds read low; some inactives read as strong as hits | activity change (mCherry), % (test concentration not listed) | 89,000 tested, 0.01% active;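 active = mCherry past -33% and 40 or more points under the early reporter, replicates agreeing; inconclusive = past -33% without that gap or agreement; tested in A549 cells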;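 also: scaled between vehicle wells and reference inhibitor wells; 23 nL library stock went into each well; one replicate is shown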
# Vaccinia stage Venus – recorded beside Vaccinia stage, whose call it bears; activity change (Venus), %; measured here: Venus reporter, other viral stage;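 negative = less Venus signal; first of two replicates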
# * = called active by the depositor; ? = inconclusive; . = not tested or not shown; & = joins results of further samples. Some of the compounds tested. The share of hits here may be higher or lower than overall.
SMILES,Vaccinia stage,Vaccinia stage Venus
C[C@@H]1CN([C@H](C)CO)C(=O)CCCn2cc(nn2)CO[C@@H]1CN(C)S(=O)(=O)c1ccccc1C#N,14.2,12.8
Cc1ccccc1S(=O)(=O)N(C)C[C@@H]1OCc2ccccc2-c2ccccc2C(=O)N([C@H](C)CO)C[C@H]1C,-27.7,-19.6
C[C@@H]1CCCCO[C@@H](CN(C)CC2CCCCC2)[C@@H](C)CN([C@H](C)CO)C(=O)c2cc(NS(=O)(=O)c3cn(C)cn3)ccc2O1,19.9,16.6
Cc1ccc(S(=O)(=O)N(C)C[C@@H]2Oc3ccc(NC(=O)Cc4ccccc4)cc3CC(=O)N([C@@H](C)CO)C[C@@H]2C)cc1,-18.4,-10.1
O=C(C[C@H]1C=C[C@@H](NC(=O)C2CCC2)[C@@H](CO)O1)Nc1nccs1,4.9,8.2
C[C@@H]1CN([C@@H](C)CO)C(=O)Cc2cc(NC(=O)c3ccncc3)ccc2O[C@@H]1CN(C)Cc1ccc(C(=O)Nc2ccccc2N)cc1,-5.9,-6.5
Cc1cccc(S(=O)(=O)N[C@@H]2CC[C@@H](CCNS(=O)(=O)c3ccccc3F)O[C@@H]2CO)c1,3.8,9.9
C[C@H](CO)N1C[C@H](C)[C@@H](CN(C)Cc2cccnc2)Oc2cc(-c3ccccc3)ccc2S1(=O)=O,-31.9,-16.9
O=C(Nc1ccc2c(c1)[C@H]1C[C@H](CC(=O)N3CCCCC3)O[C@@H](CO)[C@H]1O2)C1CCOCC1,-9.0,1.0
CO[C@H]1CN(C)C(=O)c2cc(NC(=O)c3ccc(Oc4ccccc4)cc3)ccc2OC[C@H](C)NC[C@H]1C,?,.
COc1ccccc1NC(=O)N1CCCCN2[C@H](C1)[C@H](c1ccc(-c3ccccc3)cc1)[C@@H]2CO,-27.3,-10.2
N#C[C@H]1[C@@H](c2ccccc2C2=CCCCC2)[C@@H](CO)N1C(=O)c1cccc(F)c1,0.2,-1.5
Cc1ccc(S(=O)(=O)N(C)C[C@H]2Oc3c(NC(=O)C4CC4)cccc3C(=O)N([C@H](C)CO)C[C@@H]2C)cc1,2.0,6.0
O=C(O)C[C@@H]1C[C@H]2c3cc(NS(=O)(=O)c4ccccc4)ccc3O[C@H]2[C@@H](CO)O1,-2.2,7.8
C[C@H](CO)N1C[C@H](C)[C@@H](CN(C)C(=O)CCC(F)(F)F)OCCCC[C@H](C)Oc2ccc(NC(=O)CCC(F)(F)F)cc2C1=O,-15.4,-8.0
O=C(C[C@H]1CC[C@@H]2[C@H](COC[C@@H](O)CN2S(=O)(=O)c2ccccc2)O1)N1CCOCC1,21.8,17.3
COCC(=O)N(C)C[C@H]1Oc2cc(-c3ccc(C)cc3)ccc2S(=O)(=O)N([C@H](C)CO)C[C@H]1C,-8.6,-7.7
O=C(C1CCCC1)N1CC(=O)N2[C@@H](CO)[C@H](c3ccc(C#Cc4cccc(F)c4)cc3)[C@@H]2C1,?,.
CCNC(=O)[C@@H]1[C@@H](CO)[C@@H]2Cn3c(ccc(-c4ccccc4F)c3=O)[C@H]1N2Cc1cccnc1,8.1,7.2
C[C@@H]1CN([C@H](C)CO)C(=O)c2cc(/C=C/c3ccccc3)cnc2O[C@H]1CN(C)C(=O)Cc1cccnc1,9.8,4.6
C[C@H](NC(=O)C[C@@H]1C[C@@H]2c3cc(NC(=O)C4CCC4)ccc3O[C@@H]2[C@H](CO)O1)c1ccccc1,8.5,2.9
N#C[C@@H]1[C@H](c2ccc(C#Cc3ccccc3F)cc2)[C@@H](CO)N1C(=O)c1cccnc1,?,.
O=C(CCN1CCCCC1)NCC[C@@H]1CC[C@H](NS(=O)(=O)c2cccc(Cl)c2)[C@H](CO)O1,-6.5,7.5
C/C=C/c1ccc2c(c1)O[C@H](CN(C)C(=O)Nc1ccccc1)[C@@H](C)CN([C@H](C)CO)S2(=O)=O,-13.0,-8.6
Cc1ccc(S(=O)(=O)Nc2ccc3c(c2)CC(=O)N([C@H](C)CO)C[C@H](C)[C@@H](CN(C)CC2CCCCC2)O3)cc1,?,.
O=C(CC1CC1)N1[C@H](CO)[C@@H](c2ccccc2)C12CN(Cc1cccnc1)C2,13.5,5.6
COc1ccc(S(=O)(=O)Nc2ccc3c(c2)CC(=O)N([C@@H](C)CO)C[C@H](C)[C@@H](CN(C)C(=O)Nc2ccc4c(c2)OCO4)O3)cc1,13.0,1.3
C[C@@H]1CCCCO[C@H](CN(C)S(=O)(=O)c2cccs2)[C@H](C)CN([C@H](C)CO)C(=O)c2cc(NS(=O)(=O)c3ccc(Cl)cc3)ccc2O1,-31.2,-23.4
CN1C(=O)c2cc(NC(=O)Cc3cccs3)ccc2OC[C@H]2O[C@@H](CC(=O)N[C@H]3CCN(Cc4ccccc4)C3)CC[C@H]21,-14.0,1.5
CC(=O)N(C)C[C@@H]1Oc2cc(-c3ccc(C)cc3)ccc2S(=O)(=O)N([C@H](C)CO)C[C@@H]1C,-10.3,-14.2
CO[C@H](CN(C)Cc1ccc2c(c1)OCO2)[C@@H](C)CN(C(=O)c1ccccc1)[C@H](C)CO,5.4,4.7
O=C(Cc1cccnc1)N1[C@H](CO)[C@H]2c3ccccc3NC[C@H]21,14.1,8.6
C[C@H](NC(=O)C[C@@H]1CC[C@H]2[C@H](COc3ccc(NC(=O)C4CCOCC4)cc3C(=O)N2C)O1)c1ccccc1,1.4,1.8
CCCN(C)C[C@H]1OCCCC[C@H](C)Oc2ccc(NS(=O)(=O)c3c(C)noc3C)cc2C(=O)N([C@@H](C)CO)C[C@@H]1C,-9.8,-15.7
CCCNC(=O)C[C@@H]1CC[C@@H]2[C@@H](COc3ccc(NC(=O)Nc4c(C)noc4C)cc3C(=O)N2C)O1,-1.6,2.7
CO[C@@H]1CN(C)C(=O)c2cc(NC(=O)Cc3ccccc3)ccc2OC[C@@H](C)N(C(C)=O)C[C@H]1C,1.1,10.9
C[C@@H]1CN([C@@H](C)CO)S(=O)(=O)c2ccc(-c3cncnc3)cc2O[C@H]1CN(C)C(=O)CN(C)C,-0.7,-2.4
N#C[C@H]1[C@@H](c2ccc(C3=CCCC3)cc2)[C@@H](CO)N1C(=O)NC1CCCCC1,-3.5,4.6
O=C(C[C@H]1C[C@@H]2c3cc(NC(=O)c4ccc5c(c4)OCO5)ccc3O[C@@H]2[C@@H](CO)O1)NC1CCCC1,1.1,-2.0
O=C(C[C@H]1CC[C@@H]2[C@H](COC[C@@H](O)CN2S(=O)(=O)c2ccccc2)O1)NCc1ccc2c(c1)OCO2,15.3,13.1
COc1ccc(CN(C)C[C@@H]2Oc3ccc(NC(=O)NC4CCCCC4)cc3CC(=O)N([C@@H](C)CO)C[C@H]2C)cc1,?,.
COc1ccc(C#Cc2ccc([C@H]3[C@@H](CO)N4CCCCN(C(=O)Cc5cccnc5)C[C@H]34)cc2)cc1,?,.
CCCC(=O)Nc1ccc2c(c1)C(=O)N(C)[C@H]1CC[C@H](CC(=O)NCc3ccccc3Cl)O[C@@H]1CO2,-0.7,7.7
CC(=O)N(C)C[C@@H]1Oc2cc(C#CC(C)C)ccc2S(=O)(=O)N([C@H](C)CO)C[C@H]1C,4.1,1.0
Cc1noc(C)c1NC(=O)Nc1ccc2c(c1)C(=O)N([C@@H](C)CO)C[C@H](C)[C@H](CN(C)S(=O)(=O)c1cn(C)cn1)O2,7.4,-0.1
Cc1ccc(S(=O)(=O)N(C)C[C@H]2Oc3ccc(NS(=O)(=O)c4ccccc4)cc3CC(=O)N([C@@H](C)CO)C[C@@H]2C)cc1,-2.6,-5.7
O=C(C[C@H]1C[C@H]2c3cc(NC(=O)Nc4ccccc4)ccc3O[C@H]2[C@H](CO)O1)NC1CCCC1,10.2,-2.4
C[C@@H]1CN([C@H](C)CO)C(=O)c2cccc(NS(=O)(=O)c3cn(C)cn3)c2O[C@@H]1CN(C)S(=O)(=O)c1ccc(F)cc1,2.8,-2.7
CO[C@@H]1CN(C)C(=O)c2ccc(NC(C)=O)cc2OC[C@@H](C)N(Cc2nccs2)C[C@H]1C,14.4,17.1
C[C@H](CO)N1C[C@H](C)[C@H](CN(C)Cc2ccc(Cl)c(Cl)c2)Oc2c(NS(=O)(=O)c3ccc(F)cc3)cccc2C1=O,?,.
Cc1noc(C)c1NC(=O)N[C@H]1CC[C@@H](CCNC(=O)C2CC2)O[C@@H]1CO,12.4,7.0
CC=Cc1ccc2n(c1=O)C[C@H]1[C@H](CO)[C@@H](C(=O)NCC3CC3)N(Cc3ccccn3)[C@@H]21 (mixture of isomers),9.6,13.4
O=C(Nc1cccc(F)c1)N1C[C@@H]2[C@H](c3ccccc31)[C@@H](CO)N2C(=O)c1cccnc1,19.1,8.8
C[C@H](O)C#Cc1cnc2c(c1)C(=O)N([C@@H](C)CO)C[C@H](C)[C@H](CN(C)C(=O)c1ccc(F)cc1)O2,31.7,24.5
O=S(=O)(N[C@@H]1CC[C@@H](CCn2cc(-c3cccnc3)nn2)O[C@H]1CO)c1ccccc1,17.2,11.3
C/C=C/c1ccc([C@H]2[C@@H](CO)N(S(=O)(=O)CC)[C@@H]2CN(C)C(=O)CC)cc1,-6.4,-10.2
O=C(c1ccccn1)N1CC[C@@H]2[C@H]1c1cc(-c3ccc(F)cc3)ccc1N[C@@H]2CO,-18.7,-15.1
COC(=O)[C@@H]1[C@@H](CO)[C@@H]2Cn3c(ccc(-c4ccncc4)c3=O)[C@@H]2N1CC1CCCC1,9.7,16.8
C[C@@H]1CN([C@H](C)CO)C(=O)c2cc(NS(=O)(=O)c3cccs3)ccc2O[C@@H](C)CCCCO[C@@H]1CN(C)Cc1ccccc1,?,.
O=C(N[C@@H]1CC[C@@H](CCNS(=O)(=O)c2ccc(F)cc2)O[C@H]1CO)C1CCOCC1,-4.8,-3.8

# (listing goes on)
SMILES,Vaccinia stage,Vaccinia stage Venus
COc1ccc(CN(C)C[C@@H]2OCCCC[C@@H](C)Oc3ccc(NC(=O)Nc4ccc5c(c4)OCO5)cc3C(=O)N([C@@H](C)CO)C[C@@H]2C)cc1,?,.
O=C(C[C@H]1CC[C@H]2[C@@H](COC[C@@H](O)CN2S(=O)(=O)c2cccc(Cl)c2)O1)NCc1ccncn1,6.6,5.0
O=C(c1ccc(F)cc1)N1CCCCN2[C@H](CO)[C@@H](c3ccc(-c4ccc(F)cc4)cc3)[C@@H]2C1,?,.
O=C1N(Cc2ccccc2)Cc2ccccc2[C@@H]2OC(c3ccc(OCCCO)cc3)=N[C@]12Cc1ccccc1,-33.8,-22.5
Cc1noc(C)c1S(=O)(=O)Nc1ccc2c(c1)CC(=O)N([C@@H](C)CO)C[C@@H](C)[C@H](CN(C)S(=O)(=O)c1c(C)noc1C)O2,22.5,17.7
N#C[C@H]1[C@H](c2ccccc2)[C@H](CO)N1C(=O)CN1CCOCC1,2.2,4.0
CC(=O)N(C)C[C@@H]1Oc2cc(C#Cc3ccncc3)ccc2S(=O)(=O)N([C@@H](C)CO)C[C@H]1C,-9.2,-8.6
COc1ccc(NC(=O)Nc2ccc3c(c2)CC(=O)N([C@@H](C)CO)C[C@@H](C)[C@H](CN(C)C(=O)Nc2ccc(F)cc2)O3)cc1,-7.0,4.6
CO[C@@H]1CN(C)C(=O)c2cc(NS(=O)(=O)CC(F)(F)F)ccc2OC[C@@H](C)N(Cc2cccnc2)C[C@@H]1C,8.5,8.9
COc1ccc(CN(C)C[C@@H]2OCc3cnnn3CCCC(=O)N([C@H](C)CO)C[C@@H]2C)cc1,5.9,12.3
CCC(=O)N1[C@H](CN(CC)C(=O)c2cccc(F)c2)[C@@H](c2ccccc2)[C@@H]1CO,20.9,12.8
C[C@H]1CCCCO[C@@H](CN(C)Cc2ccc(C(=O)O)cc2)[C@@H](C)CN([C@@H](C)CO)C(=O)c2cc(NC(=O)NC3CCCCC3)ccc2O1,17.3,7.7
C[C@H]1CN([C@@H](C)CO)C(=O)c2cccc(NC(=O)c3ccc(-c4nccs4)cc3)c2O[C@H]1CN(C)C(=O)Nc1ccccc1,10.6,5.4
Cc1ccc(-c2ccc3c(c2)O[C@@H](CN(C)Cc2ccc(F)cc2)[C@@H](C)CN([C@@H](C)CO)S3(=O)=O)cc1,-33.1,-28.5
C[C@@H]1CN([C@@H](C)CO)C(=O)CCCn2cc(nn2)CO[C@H]1CN(C)S(=O)(=O)c1ccccc1F,19.2&-1.7,12.1&-1.9
CN1c2ccc(C3=CCCCC3)cc2[C@@H]2[C@@H](CCN2C(=O)C2CCC2)[C@H]1CO,-12.1,-7.9
C[C@H](CO)N1C[C@H](C)[C@@H](CN(C)C(=O)Nc2ccc3c(c2)OCO3)OCCCC[C@H](C)Oc2ccc(NC(=O)Nc3ccc(F)cc3)cc2C1=O,19.5,13.6
O=C(C1CCC1)N1CC2(C1)[C@H](c1ccccc1)[C@@H](CO)N2Cc1cncnc1,2.3,10.5
COCC#Cc1ccc2c(c1)O[C@@H](CN(C)C(=O)NC(C)C)[C@@H](C)CN([C@H](C)CO)S2(=O)=O,6.3,10.2

# Some of these compounds in order of formula weight, ascending.
SMILES,Vaccinia stage,Vaccinia stage Venus
O=C(c1ccc(F)cc1)N1CCCCN2[C@H](CO)[C@@H](c3ccc(-c4ccc(F)cc4)cc3)[C@@H]2C1,?,.
C[C@@H]1CN([C@@H](C)CO)C(=O)CCCn2cc(nn2)CO[C@H]1CN(C)S(=O)(=O)c1ccccc1F,19.2&-1.7,12.1&-1.9
Cc1ccc(-c2ccc3c(c2)O[C@@H](CN(C)Cc2ccc(F)cc2)[C@@H](C)CN([C@@H](C)CO)S3(=O)=O)cc1,-33.1,-28.5
O=C1N(Cc2ccccc2)Cc2ccccc2[C@@H]2OC(c3ccc(OCCCO)cc3)=N[C@]12Cc1ccccc1,-33.8,-22.5
Cc1noc(C)c1S(=O)(=O)Nc1ccc2c(c1)CC(=O)N([C@@H](C)CO)C[C@@H](C)[C@H](CN(C)S(=O)(=O)c1c(C)noc1C)O2,22.5,17.7
C[C@H](CO)N1C[C@H](C)[C@@H](CN(C)C(=O)Nc2ccc3c(c2)OCO3)OCCCC[C@H](C)Oc2ccc(NC(=O)Nc3ccc(F)cc3)cc2C1=O,19.5,13.6

# Assay outcomes as filed in PubChem BioAssay.
